Source: PubChem BioAssay (National Center for Advancing Translational Sciences (NCATS))
VDR inh – Inhibitors of the vitamin D receptor (VDR): qHTS; actives 0.93% (n = 400,000); AID 504847, 2011; Potency, µM, for inactives: max response, negative = inhibition, actives largely listed as inhibitors; Vitamin D3 receptor (Homo sapiens), P11473; VDR-SRC2-3 peptide fluorescence polarization, 2 h; active = well fitted inhibition curve with a large enough effect; inconclusive = small, poorly fitted or top-dose-only effect, or another doubt; inactive = no such curve, though single readings can be large or run the other way; note: series mostly up to about 120 µM
Target sequence (P11473 whole entry, looked up): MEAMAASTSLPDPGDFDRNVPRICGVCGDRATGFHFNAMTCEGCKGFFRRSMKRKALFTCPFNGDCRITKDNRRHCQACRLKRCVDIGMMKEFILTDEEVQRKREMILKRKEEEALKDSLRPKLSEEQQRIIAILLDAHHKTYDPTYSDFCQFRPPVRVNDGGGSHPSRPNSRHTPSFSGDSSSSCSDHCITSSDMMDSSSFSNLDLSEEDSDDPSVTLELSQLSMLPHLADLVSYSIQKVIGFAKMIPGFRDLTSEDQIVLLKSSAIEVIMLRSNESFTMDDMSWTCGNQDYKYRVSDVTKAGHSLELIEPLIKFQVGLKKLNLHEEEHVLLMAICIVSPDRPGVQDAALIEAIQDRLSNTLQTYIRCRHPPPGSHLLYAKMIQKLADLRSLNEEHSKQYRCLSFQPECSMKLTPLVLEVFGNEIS
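Compounds are added to VDR with labelled SRC2-3 coactivator peptide and held 2 h at room temperature. Inhibition of the VDR–peptide interaction is then read as a change in fluorescence polarization.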
Numbers without * were called inactive; ? = inconclusive; & = joins results of further samples. % is set by controls: 0 for no effect and ±100 for the full control effect; potency is the fitted concentration of half-maximal effect. An excerpt, so the mix of outcomes need not match the whole.

VDR inh	SMILES
-4%	CN(C[C@H](Cc1ccccc1)N(C[C@H](Cc1ccccc1)N(CCc1cc(C(F)(F)F)cc(C(F)(F)F)c1)N=O)N=O)N=O
10%	COc1ccc(C2C=C(c3ccccc3)Nc3nc(NC(C)=O)nn32)cc1 (stereo not drawn)
0%	CC(NC(=O)/C(=C\c1ccco1)NC(=O)c1ccccc1Br)C(=O)O (stereo not drawn)
-2%	Cc1ccc(NC(=O)c2oc3ccc(S(=O)(=O)N4CCC5(CC4)OCCO5)cc3c2C)cc1Cl
30%	C=CCc1ccc(OCC(O)CN2CCN(c3ccccc3OC)CC2)c(OC)c1 (stereo not drawn)
7%	Cc1cc2cc(CNC(=O)COc3ccccc3)ccc2n1C
-3%	C=CCOc1cccc(C(=O)N2CCCC(CCC(=O)NCc3ccccc3F)C2)c1 (stereo not drawn)
11%	Cc1cc(C)cc(NC(=O)CCn2c(=S)[nH]c3ccccc3c2=O)c1
?	Fc1ccc(-n2nnc(-c3cccnc3Cl)n2)cc1
-2%	CC1CCCCN1CC(=O)Nc1cc(S(=O)(=O)N2CCOCC2)ccc1N1CCCC1 (stereo not drawn)
-15%	COC(=O)c1[nH]c2ccc(C)cc2c1NC(=O)Nc1ccccc1OC
15%	CC(C)(C)NC(=O)Cn1nc(C(F)(F)F)c2c1CCCC2
6%	NNC(=O)CCN(Cc1ccco1)S(=O)(=O)c1ccc(Cl)cc1
-14%	CCOC(=O)c1c(NC(=O)OC)sc(C(=O)N(C)C)c1C
-14%	Cc1ccc(-n2cc(C(=O)c3cc(Cl)ccc3O)cc(C#N)c2=O)cc1
6%	O=C1C(C=NCCCn2ccnc2)=C(O)c2ccccc21
-14%	Cc1cccc(-c2nc3cc([N+](=O)[O-])ccc3o2)c1
-7%	CC(C)(C)C(=O)CN1C2=NCCN2c2ccccc21
1%	Cn1c(NC(=O)c2ccc(C(C)(C)C)cc2)cc(=O)n(C)c1=O
-9%	COc1ccccc1C(=O)NCCC(=O)Nc1cccc(C)n1
-16%	Cn1c(Cn2nnc3ccccc32)nnc1SCC(=O)N1c2ccccc2CCc2ccccc21
19%	C=CCn1c(COc2ccccc2F)nnc1SCC(=O)c1c[nH]c2ccccc12
-4%	CCOc1ccc(NC(=O)c2cn(CC(C)C)c(=O)c3c2c2ccccc2n3C)cc1
-11%	COc1ccc(CN(C)C(=O)CC(c2ccccc2)c2ccccc2)cc1
-26%	COc1ccc(C2C3=C(CC(C)(C)CC3=O)N(C)C3=C2C(=O)CC(C)(C)C3)cc1OC
13%	CCC(C)c1ccccc1NC(=S)NC(=O)c1ccco1 (stereo not drawn)
?	Nc1cc(N)nc(SCC(=O)NCc2ccc3c(c2)OCO3)n1
-14%	COc1ccc2cc(C(=O)N3CCN(c4ccc(F)cc4)CC3)[nH]c2c1
0%	Cc1ccc(C)c(C(C)NC(=O)C2CCCC2)c1 (stereo not drawn)
5%	COc1ccccc1OCCC(=O)Nc1ccc2c(c1)OCO2
-13%	O=C(O)/C=C/C(=O)NCc1ccccc1
4%	Cc1c(-c2ccccc2Cl)nc2ccccc2c1C(=O)O
-14%	O=C(CSc1nnc(-c2ccccc2F)n1C1CCCCC1)Nc1cc(C(=O)O)ccc1Cl
2%	O=C1N(S(=O)(=O)c2ccccc2F)C(=O)C2(CCCC2)N1S(=O)(=O)c1ccccc1F
16%	CC(C)C(NC(=O)c1cccc(S(=O)(=O)N2CCOCC2)c1)C(=O)NCc1ccc(Cl)cc1 (stereo not drawn)
11%	COc1cccc(/C=N/n2c(=S)n(C)c3ccccc32)c1OC
-3%	CCOC(=O)Nc1ccc(N2CCOCC2)c(S(=O)(=O)N2CCOCC2)c1
-17%	COC(=O)c1c(C(=O)OC)c2ccncn2c1Cl
-2%	O=C(Oc1cccnc1)c1ccccc1[N+](=O)[O-]
-23%	O=C(O)c1ccccc1OCc1ccccc1Br
-1%	Cc1ncc([N+](=O)[O-])n1CC(=O)Nc1ccccc1
-2%	Cn1cc([N+](=O)[O-])c(C(=O)NCc2ccco2)n1
12%	O=S(=O)(Cc1ccccc1)N1CCc2ccccc2C1
2%	COc1ccc(CNc2ncc(-c3ccc(Cl)cc3)n2C)c(OC)c1OC
?	COc1cccc(CNS(=O)(=O)c2ccccc2Br)c1OC
-3%	Cc1ccc2[nH]c(=O)c(C(c3nnnn3CCc3ccccc3)N3CCOCC3)cc2c1 (stereo not drawn)
8%	CSc1ccc(CCNC(=O)Cn2ccc3cc(S(=O)(=O)N4CCCCCC4)ccc32)cc1
-3%	O=C(O)CSCC(=O)NCc1ccccc1Cl
13%	Cc1ccc(NC(=O)Cc2ccccc2Cl)cc1S(=O)(=O)N(C)C
2%	Cc1ccc(CNC(=O)c2cc3ccccc3oc2=O)cc1
9%	Cc1cc(C)nc(NS(=O)(=O)c2ccc(NC(=O)CSc3ncn[nH]3)cc2)n1
14%	CC(=O)OCCCN1c2ccccc2Nc2nnc(-c3ccccc3)cc21
-15%	CCOc1ccc2oc(C(=O)NC3CCN(Cc4ccccc4)CC3)c(C)c2c1
25%	COc1ccc(CCNS(=O)(=O)c2ccc(Cl)cc2)cc1OC
-10%	O=C(CSc1nnc(CNC(=O)c2ccco2)o1)NC1CCCC1
17%	COC(=O)CC(=O)CSc1nc2c(cc1C#N)CCCCC2
11%	O=C(COc1ccccc1)N1CCN(C(=O)c2ccccc2F)CC1
-4%	CCOCCCNc1c(CC)c(C)c(C#N)c2nc3ccccc3n12
-10%	Cn1cccc1C(=O)N1CCC2(CCCN(c3ccncc3)C2)CC1
0%	CCN(CC)C(=O)CSc1nnc(-c2cccs2)n1Cc1ccco1

Some of the entries above in another layout.
> Cc1cc2cc(CNC(=O)COc3ccccc3)ccc2n1C
  VDR inh = 7%

> C=CCOc1cccc(C(=O)N2CCCC(CCC(=O)NCc3ccccc3F)C2)c1 (stereo not drawn)
  VDR inh = -3%

> Cc1cc(C)cc(NC(=O)CCn2c(=S)[nH]c3ccccc3c2=O)c1
  VDR inh = 11%

> Fc1ccc(-n2nnc(-c3cccnc3Cl)n2)cc1
  VDR inh = ?

Going on with the list:
VDR inh	SMILES
0%	COc1ccc(/C(C)=N/NC(=O)Cc2c(C)nc(C)[nH]c2=O)cc1
4%	N#Cc1ccc(NC(=O)COC(=O)CCc2nc3ccccc3c(=O)[nH]2)cc1
-16%	O=C(CCS(=O)(=O)Cc1ccccc1F)NCCc1ccc(Cl)cc1
?	O=C(NCC1CCN(Cc2cccc(Cl)c2)CC1)Nc1ccc(Cl)cc1
-2%	COc1ccc(/C=C/CN2CCN(Cc3ccc(C)cc3)C(CCO)C2)cc1 (stereo not drawn)
-3%	O=C(C[n+]1ccccc1)Nc1ccccc1Br
5%	CCCOC(=O)Nc1nnc(CCC)s1
-13%	Cc1ccc(-c2nc3ccccc3o2)cc1NC(=S)NC(=O)c1cc2ccccc2o1
-18%	CCCCNCCS(=O)(=O)NCc1ccccc1
-4%	CCCCN(CC)C(=O)c1ccc2c(c1)NC(=O)c1ccccc1S2
-26%	COc1cccc(CCNC(=O)COc2cccc3c2OC(C)(C)C3)c1
4%	O=C(COC(=O)c1cc(=O)[nH]c2ccccc12)NCCc1ccccc1
-2%	COc1cc(C(C)=O)ccc1OCC(O)CN1CCN(c2c(C)cccc2C)CC1 (stereo not drawn)
10%	Cc1ccc(Nc2nnc(SCC(=O)Nc3cccc(S(=O)(=O)NC4=NCCCCC4)c3)s2)cc1
-3%	Nc1ccn(Cc2ccccc2)n1
-2%	CCCCOc1ccc(NC(=O)CCSc2nccn2C)cc1
12%	CC(=N\Nc1ccc(Cl)cc1)/C(=N/O)C(=O)Nc1ccccc1
6%	CCOC(=O)C1=C(COC(=O)C2CC(=O)N(c3ccc(CC)cc3)C2)NC(=O)NC1C (stereo not drawn)
-7%	CCN(CC)S(=O)(=O)c1cc(C(=O)Nc2cc(S(=O)(=O)N3CCOCC3)ccc2N2CCN(C)CC2)ccc1C
5%	COc1ccccc1NC(=O)CN1C(=O)C(c2ccc(F)cc2)=NC12CCCCC2
17%	C1=C(C(c2nnnn2C2CCCCC2)N2CCCCC2)COc2ccccc21 (stereo not drawn)
35µM*	CC(C)(C)c1cc(/C=C(\C#N)C(N)=S)cc(C(C)(C)C)c1O
5%	O=C(COc1ccccc1Cl)N1CCN(c2ccccn2)CC1
-8%	CN1CCN(C(=O)C2=C[C@H](c3csc4ccccc34)C[C@H](OCCCCO)O2)CC1
?	CCC(C)CC(C)CC(C)C(=O)/C=C(/O)C(C)CC(C)C/C=C/C(C)C(O)C(C)C(O)CC1CCC(C)(C)O1 (stereo not drawn)
-13%	C(=N\NC1=Nc2cccc3cccc1c23)/c1ccccn1
?	Cn1cc(C(=O)NCc2ccc(F)cc2)c(=O)c2cc(S(=O)(=O)N3CCCCC3)ccc21
-8%&1%	CCc1nc2ccc(C(=O)N3CCN(c4ccc(Cl)cc4)CC3)cc2nc1CC
-3%	COc1cccc(CNC(=O)COC(=O)c2ccc(S(C)(=O)=O)c([N+](=O)[O-])c2)c1
3%	Cc1ccc(N2CCn3c2nc2c3c(=O)n(Cc3cccc(Cl)c3)c(=O)n2C)cc1C
?	O=C(CN1C(=O)S/C(=C\c2ccccc2F)C1=O)NCCCn1ccnc1
10%	Cc1cc(C(=O)Nc2ccc(CC(=O)O)cc2)c(C)o1
2%	O=C(c1ccco1)c1cn(CC(=O)N2CCCc3ccccc32)c2ccccc12
14%&9%	Cc1cccc(N2CCN(S(=O)(=O)c3ccc4c(c3)CCCN4C(=O)C3CCC3)CC2)c1C
-20%	Cc1ccc(S(=O)(=O)/N=S(/c2ccccc2)C(C)C)cc1 (stereo not drawn)
-16%	CCN(CC)CCn1c(C)nc2c(sc3nc4c(cc32)COC(C)(C)C4)c1=O
-1%	CCn1cc(C(=O)OCC(=O)NCc2ccccc2Cl)c(=O)c2ccc(C)nc21
-3%	Cc1ccc(C(=O)Nc2nnc(-c3cccs3)s2)cc1C
-17%	CCOCCCn1c(SCc2nc3ccccc3s2)nc2ccccc2c1=O
4%	COc1ccc(C(=O)N/C(=C\c2cccc3ccccc23)C(=O)NCCc2c[nH]c3ccccc23)cc1OC
-5%	CCCCNC(=S)NCCN1CCN(C(=S)NCCCC)CC1
-8%	CN(Cc1nc2ccccc2c(=O)[nH]1)C(=O)c1ccc(NC(=O)CSc2nnnn2C)cc1
10%	CCOc1ccc2[nH]c3nc(SCC(=O)NCC4CCCO4)nnc3c2c1 (stereo not drawn)
-4%	N#CC1=C(N)OC2=C(C(=O)CCC2)C1c1ccoc1 (stereo not drawn)
3%	CN(C(=O)c1cccc(NC(=O)Cc2cccc(NC(=O)C3CCCN(C(=O)c4ccccc4)C3)c2)c1)C1CCC1 (stereo not drawn)
-22%	O=S(=O)(Nc1ccccc1N1CCOCC1)c1cccs1
7%	Cc1nn(C)cc1CNCc1ccc(OCC(O)CN(C)Cc2ccccc2)cc1 (stereo not drawn)
5%	CCOC(=O)c1ccc(NC(=O)CCn2c(=O)c3cccn3c3cccnc32)cc1
-15%	O=C(/C=C/c1ccc2c(c1)OCCO2)c1ccc(O)cc1
-8%	C#CCOCCOCCOCCNc1nc(N2CCN(C(=O)C([C@@H](C)CC)n3cc(C(N)COC(=O)C(F)(F)F)nn3)CC2)nc(N2CCN(C(=O)[C@H](Cc3ccc(O)cc3)n3cc(C(N)[C@H](C)CC)nn3)CC2)n1 (stereo partly drawn)
-6%	O=C(NC1CC2CCCC(C1)N2S(=O)(=O)c1ccccc1)C1CCCCC1 (stereo not drawn)
-24%	COc1ccccc1OCC(=O)Nc1cc(S(=O)(=O)N2CCOCC2)ccc1N1CCCCC1
-20%	Cc1cc(C)cc(NC(=S)NN)c1
12%	COC(=O)c1ccc2[nH]c(C(C)(C)O)c(C)c2c1
-6%	NC(=O)c1cc([N+](=O)[O-])ccc1NCc1cccc(N)c1
-9%	CC1CN(C(=O)c2ccc([N+](=O)[O-])s2)CC(C)O1 (stereo not drawn)
9%	Cc1cccc(C)c1-n1ncc(C(=O)NCCCN2CCC(C)CC2)c1C1CCN(C(=O)OC(C)(C)C)CC1
-5%	Cc1ccc(Cl)cc1N(C)C(=O)c1cc2ccc3cccnc3c2[nH]1
-3%	C=CCSc1nc2sc3c(c2c(=O)n1CC=C)CCc1ccccc1-3
13%	Cc1cc(C)n2nc(C(=O)N3CCCC(Nc4ccc(C(C)C)cc4)C3)cc2n1 (stereo not drawn)
11%	Cc1ccccc1-n1ncc2c(SCC(=O)NCc3cccs3)ncnc21
-10%	CCc1ccc(C(=O)CSc2nnc(C)c(=O)[nH]2)cc1

Part of the list above in order of length of the SMILES, ascending.
VDR inh	SMILES
7%	Cc1nn(C)cc1CNCc1ccc(OCC(O)CN(C)Cc2ccccc2)cc1 (stereo not drawn)
5%	CCOC(=O)c1ccc(NC(=O)CCn2c(=O)c3cccn3c3cccnc32)cc1
9%	Cc1cccc(C)c1-n1ncc(C(=O)NCCCN2CCC(C)CC2)c1C1CCN(C(=O)OC(C)(C)C)CC1

3 entries out of the list above, sorted by the value under VDR inh, largest number first.
| compound | VDR inh |
| --- | --- |
| C1=C(C(c2nnnn2C2CCCCC2)N2CCCCC2)COc2ccccc21 (stereo not drawn) | 17% |
| Cc1cc(C)nc(NS(=O)(=O)c2ccc(NC(=O)CSc3ncn[nH]3)cc2)n1 | 9% |
| Cc1cccc(-c2nc3cc([N+](=O)[O-])ccc3o2)c1 | -14% |
